Compound activity: PubChem BioAssay, Fisher Drug Discovery Resource Center
NPYLR7 ag = mosquito NPYLR7 agonism; 0.15% of 270,000 active; AID 1259423; activation, % at 10 µM; HEK293T NPYLR7/Galpha15, GCaMP6s calcium fluorescence; in the data active = activation above about 40%;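 note: 0% = vehicle and 100% = reference agonist at the receptor; some compounds past the cut are filed as inactive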
NPYLR7 ag max-min = also measured in NPYLR7 ag; calls as there; activation, %; measured here: Max-Min RFU normalised activation; some inactives read as strong as hits;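 span of the calcium signal over five minutes; 0% = vehicle and 100% = native peptide agonist; compound fluorescence can raise it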
* = called active by the depositor; & = joins results of further samples. A portion of the library; count on the stated rates, not on these rows.

Screens in order – NPYLR7 ag	NPYLR7 ag max-min
1) COc1c(C)cnc(Cn2cnc3c(Cl)nc(N)nc32)c1C
    -8	-15
2) CN1CCC2(CC1)CCN(C(=O)c1c[nH]c3ccccc13)C2
    4	1
3) CCCCc1nc(NCC2CCCO2)c(C#N)c2c1COC(C)(C)C2 (stereo not drawn)
    5	2
4) C=CCOCC(O)CN(CCN1CCOCC1)Cc1ccc(OC)c(OC)c1 (stereo not drawn)
    26	21
5) COc1cc2c(cc1OC)C1CN(C(=O)C3CCN(c4nccc(C(F)(F)F)n4)CC3)CC(=O)N1CC2 (stereo not drawn)
    17	8
6) CC1CCC(=NNC(=O)OC(C)(C)C)CC1 (stereo not drawn)
    9	8
7) CCO[C@H]1COC[C@@H]1NC(=O)c1cccnc1N1CCOCC1
    -5	-6
8) COCCCN(CC(=O)N(CCc1c[nH]c2ccccc12)Cc1ccccc1)C(=O)Nc1cccc(Cl)c1Cl
    22	31
9) Cc1cccc(CO[C@]2(C(=O)NN3CCOCC3)CC(OCc3cccc(F)c3F)[C@@H]3OC(C)(C)O[C@@H]3C2)c1 (stereo partly drawn)
    19	23
10) COc1ccc2[nH]c(C(=O)N3CCC(Nc4ncccn4)CC3)c(C)c2c1
    21	6
11) COCCN(Cc1cc(NC(=O)C(C)C)ccc1N(C)C)C(=O)c1ccc(OC)cc1
    7	14
12) COc1ccc(-c2csc(-n3[nH]c(C)c(N=Nc4ccccc4C(F)(F)F)c3=O)n2)cc1
    -6	-8
13) COC(=O)N1N=C(c2ccccc2)CC1(O)C(F)(F)F (stereo not drawn)
    -4	-5
14) CCCCN(C(=O)Nc1ccccc1C(F)(F)F)C(CC)c1nc2ccccc2c(=O)n1-c1ccc(F)c(Cl)c1 (stereo not drawn)
    5	18
15) CCCNC(=O)c1cc(NC(=O)Nc2ccc(Cl)cc2Cl)ccc1N1CCCCC1
    21	25
16) O=C(CCc1ccccc1)N1CCN(c2nccc(-c3cccc(C(F)(F)F)c3)n2)CC1
    4	8
17) Cc1nn2c(NCCCN(C)C)cc(-c3ccccc3)nc2c1-c1ccccc1
    4	3
18) CCOC(=O)C(=C/C(=C/N(C)C)OCC)C(=O)OCC
    -5	-14
19) C=CCn1c(SCC(N)=O)nc2sc3c(c2c1=O)CCC3
    14	8
20) O=C(c1nc2ccc(Cl)cn2c1CN1CCCC(CO)C1)N1CCc2ccccc2C1 (stereo not drawn)
    7	8
21) O=C1C(O)=C(c2ccc3ccccc3n2)C(c2ccsc2)N1C1CCCC1 (stereo not drawn)
    6	5
22) Cc1nc2c(=O)n(CC(=O)NCc3ccc(F)cc3)nc(-c3ccc(Cl)cc3)c2s1
    1	-2
23) CC=CCn1c(=O)c2c(nc3n(-c4ccc(O)cc4)c(C)cn23)n(C)c1=O
    6	0
24) CCc1cccc(C)c1Nc1nnc(SCC#N)s1
    13	7
25) CCOC(=O)c1ccc(NC(=O)N2CCc3ccccc3C2c2ccccc2Cl)cc1 (stereo not drawn)
    22	8
26) CCOc1ccc(C=C2SC(=S)NC2=O)cc1OC
    5	-1
27) O=S(=O)(c1ccc(CNCc2ccc(F)cc2F)cc1)N1CCOCC1
    0	0
28) CCc1ccc(C(=O)N(Cc2cccc(OS(=O)(=O)CC)c2)C(C)C)cc1
    -15	-10
29) O=C1Nc2ccccc2C12CCN(c1noc(-c3ccccc3)n1)CC2
    -8	-7
30) COc1ccc(S(=O)(=O)NCc2nnnn2-c2ccc(C)cc2)cc1C
    16	7
31) C=CCNC(=O)CCCn1nc([N+](=O)[O-])c(Br)c1C
    5	-2
32) CCOC(=O)c1c(NC(=O)c2cccs2)sc(C(=O)Nc2ccccc2C)c1C
    -5	-11
33) CN1C(=O)c2ccc(NC(=O)NCc3ccccc3OC(F)F)cc2C1=O
    -4	-6
34) COc1ccc(-n2c(CCC(=O)NCCC3CCCN3C)ccc2-c2ccc(Cl)cc2)cc1 (stereo not drawn)
    -1	-4
35) O=C(O)C1COC2(CCN(C(=O)c3ccccc3F)CC2)N1C(=O)c1ccccc1 (stereo not drawn)
    8	6
36) COc1ccc(C(=O)N(CC(=O)N2CCc3sccc3C2c2ccccc2C)C(C)C)c(OC)c1 (stereo not drawn)
    -7	-4
37) CCOC(=O)CSc1ncnc2c1nnn2-c1ccc(OC)cc1
    8	8
38) O=C(Nc1cccc(Cn2nc3ccccn3c2=O)c1)C1CCCCC1
    0	-3
39) COC(=O)c1cccc(CN2C(=O)C(C)Sc3ccc(C)cc32)c1 (stereo not drawn)
    -6	-6
40) COc1ccc(N2CCN(C(=O)c3csc(CSc4nnc(-c5ccco5)n4-c4cc(Cl)ccc4C)n3)CC2)cc1
    14	10
41) Cc1cc(=O)[nH]c2c1c(C)nn2C1CCOC(C)(C)C1 (stereo not drawn)
    5	1
42) Nc1nc2c(c(=O)[nH]1)CCN(C(=O)CSC13CC4CC(CC(C4)C1)C3)C2
    4	1
43) C=CCCC(O)CN(Cc1cccn1C)CC1CCCO1 (stereo not drawn)
    -5	5
44) CC(C)c1cc(CN2CCC(n3nccc3NC(=O)c3ccccc3)CC2)[nH]n1
    20	12
45) O=C(CC1C=CCC1)NC(Cc1ccccc1)CN1CCCCC1 (stereo not drawn)
    -2	-2
46) Cc1n[nH]c(=O)n1-c1cccc(Br)c1
    5	3
47) CCCn1c(=O)[nH]c(=O)c2c3c(cnc21)C(=O)CC(c1ccc(OC)cc1)C3 (stereo not drawn)
    -1	28
48) CC(=O)Nc1cccc(-c2ncccc2NC(=O)C(C)C)c1
    25	9
49) Cc1cc(C)cc(C(=O)NCC(=O)N2CCC(c3ccc(O)cc3)CC2)c1
    15	10
50) O=C(CC(c1ccccc1)c1cn(Cc2ccccc2)c2ccc([N+](=O)[O-])cc12)NC1CC1 (stereo not drawn)
    -14	-8
51) Cc1ccc(N=Cc2nc(/C=C/c3cccc([N+](=O)[O-])c3)oc2O)cc1
    0	5
52) CC(C)(C)c1ccc(-c2cncnc2)cc1
    9	1
53) Cc1cccc(Oc2cc(N3CCCC3)ncn2)c1
    -14	1
54) CC(=O)c1ccc(C(=O)NC(C)c2ccc(OC(F)F)cc2)s1 (stereo not drawn)
    2	-2
55) CCN(CC)CCn1c(C)nn2c3ccccc3nc12
    4	2
56) COc1cccc(OCCn2c(C3CC(=O)N(c4cccc(OC)c4)C3)nc3ccccc32)c1 (stereo not drawn)
    4	1
57) Cc1cc(C(=O)Nc2ccc(F)cc2)n2nc(C(C)(C)C)cc2n1
    -1	2
58) CCCCNC(=O)c1cc(-c2ccc(Cl)cc2)n(-c2ccccc2OC)c1C
    -3	-2
59) COc1nc(C)cc(C)c1CNC(=O)CC1C(=O)NCCN1CC(C)C (stereo not drawn)
    2	-1
60) CCOc1ccnc(N(C)Cc2cc(-c3ccncc3)no2)n1
    -1	-4

Next part
Screens in order – NPYLR7 ag	NPYLR7 ag max-min
61) Cc1nc(NCCCc2c(C)n[nH]c2C)c2cnn(C)c2n1
    20	16
62) CC(C)(C)C(=O)N1CCC(c2nnc(C3CC3)s2)CC1
    -3	0
63) CCc1ccc(-c2nccn2Cc2c(C)nn(CC)c2C)nc1
    3	-1
64) C=CCC(O)c1nnc(Nc2cccc(Oc3ccccc3)c2)s1 (stereo not drawn)
    6	3
65) Cn1ccnc1SCC(=O)c1c(N)n(C2CC2)c(=O)[nH]c1=O
    7	8
66) CCN(CC)Cc1ccc(C(=O)NNC(=O)c2sccc2C)o1
    9	5
67) CN1CCN(C(=O)c2coc(CN(Cc3ccc(F)cc3)Cc3ccc(Cl)cc3Cl)n2)CC1
    1	18
68) Cc1cc(N2CCN(Cc3cnc(C)[nH]3)CC2)nc(-c2ccccc2)n1
    -1	-3
69) CC(=O)N(CCN(C)C)c1nc2cc(C)cc(C)c2s1
    -4	-10
70) CCO[C@H]1COC[C@@H]1NC(=O)c1scc2c1OCCO2
    6	4
71) C=CCNc1sc(S(C)(=O)=O)nc1S(=O)(=O)c1ccc(Cl)cc1
    5	3
72) COCCNCC(=O)NCC(=O)Nc1cccc(C)c1
    0	5
73) O=C(N=C1c2ccccc2CN1c1ccccc1)Nc1ccccc1
    -1	-10
74) Cc1cccc(C(=O)NCc2cccc(-c3ncc(-c4ccccc4)[nH]3)c2)c1
    -2	-10
75) O=[N+]([O-])c1cc(S(=O)(=O)N2CCCCCC2)ccc1NCc1ccc(N2CCOCC2)nc1
    -2	1

In another format: 2 of the compounds above.
nr | SMILES | NPYLR7 ag | NPYLR7 ag max-min
70 | CCO[C@H]1COC[C@@H]1NC(=O)c1scc2c1OCCO2 | 6 | 4
71 | C=CCNc1sc(S(C)(=O)=O)nc1S(=O)(=O)c1ccc(Cl)cc1 | 5 | 3

Additional results follow.
Screens in order – NPYLR7 ag	NPYLR7 ag max-min
76) O=C(c1n[nH]c2c1CCC2)N1CCCC(c2n[nH]c(=O)n2-c2ccccc2)C1 (stereo not drawn)
    6	3
77) O=C1N(c2ccc3c(c2)OCO3)C(c2ccc3c(c2)OCO3)C1(F)F (stereo not drawn)
    11	14
78) C=C(C)Cn1c(=O)c2c(nc3n2CC(C)CN3c2ccc(OCC)cc2)n(C)c1=O (stereo not drawn)
    1	-1
79) CCOc1ccc(-n2nnc3c(=O)n(CC(=O)N4CCOCC4)cnc32)cc1
    7	12
80) CCN(CC)Cc1ccc(Nc2ccnc3cc(Cl)ccc23)cc1O
    -5&-9	-9&-10
81) CCc1[nH]c(C(=O)Nc2cccc(S(C)(=O)=O)c2)c(C)c1C(=O)OC
    0	21
82) CCN(CC1CCCO1)C(=O)CS(C)(=O)=O (stereo not drawn)
    7	2
83) Cc1nn(CC(=O)NCCC2=CCCCC2)c(C)c1S(=O)(=O)N(C)C
    -1	-3
84) CO[C@@H]1c2ccccc2C2(CCN(CCCn3cnnn3)CC2)[C@H]1O
    4	1
85) C=c1c(C#N)c2[nH]c(N)c(C#N)c(C)c-2/c1=C\c1ccc(C(=O)OC)cc1
    7	7
86) Cc1cc(C(C)(O)CN)c(C)o1 (stereo not drawn)
    -15	-14
87) COc1ccc(-c2nc(Cn3c(=O)n(C(C)C)c(=O)c4ccccc43)c(C)o2)cc1
    2	-1
88) COc1ccc(-n2cccn2)c(CN2CCOCC(CN(C)C)C2)c1 (stereo not drawn)
    -5	-12
89) Cc1csc(SC(C)C(=O)N2c3ccccc3CC2C)n1 (stereo not drawn)
    15	12
90) COc1cccc(NC(=O)N2CCc3nc(Nc4cc(Cl)cc(Cl)c4)ncc3C2)c1
    2	0
91) CN(C(=O)c1ccccn1)C(Cc1ccccc1)C1CCN(C(=O)c2csc3c2CCCC3)CC1 (stereo not drawn)
    12	-3
92) CC(=O)N1c2ccccc2C2(O)C1SC1=[N+]2CCCCC1 (stereo not drawn)
    5	0
93) O=C(Nc1nnc(SCc2ccccc2F)s1)c1cc(C(F)(F)F)cc(C(F)(F)F)c1
    5	13

Grouped by structure: those above containing fluorine (15)
Screens in order – NPYLR7 ag	NPYLR7 ag max-min
5) COc1cc2c(cc1OC)C1CN(C(=O)C3CCN(c4nccc(C(F)(F)F)n4)CC3)CC(=O)N1CC2 (stereo not drawn)
    17	8
9) Cc1cccc(CO[C@]2(C(=O)NN3CCOCC3)CC(OCc3cccc(F)c3F)[C@@H]3OC(C)(C)O[C@@H]3C2)c1 (stereo partly drawn)
    19	23
12) COc1ccc(-c2csc(-n3[nH]c(C)c(N=Nc4ccccc4C(F)(F)F)c3=O)n2)cc1
    -6	-8
13) COC(=O)N1N=C(c2ccccc2)CC1(O)C(F)(F)F (stereo not drawn)
    -4	-5
14) CCCCN(C(=O)Nc1ccccc1C(F)(F)F)C(CC)c1nc2ccccc2c(=O)n1-c1ccc(F)c(Cl)c1 (stereo not drawn)
    5	18
16) O=C(CCc1ccccc1)N1CCN(c2nccc(-c3cccc(C(F)(F)F)c3)n2)CC1
    4	8
22) Cc1nc2c(=O)n(CC(=O)NCc3ccc(F)cc3)nc(-c3ccc(Cl)cc3)c2s1
    1	-2
27) O=S(=O)(c1ccc(CNCc2ccc(F)cc2F)cc1)N1CCOCC1
    0	0
33) CN1C(=O)c2ccc(NC(=O)NCc3ccccc3OC(F)F)cc2C1=O
    -4	-6
35) O=C(O)C1COC2(CCN(C(=O)c3ccccc3F)CC2)N1C(=O)c1ccccc1 (stereo not drawn)
    8	6
54) CC(=O)c1ccc(C(=O)NC(C)c2ccc(OC(F)F)cc2)s1 (stereo not drawn)
    2	-2
57) Cc1cc(C(=O)Nc2ccc(F)cc2)n2nc(C(C)(C)C)cc2n1
    -1	2
67) CN1CCN(C(=O)c2coc(CN(Cc3ccc(F)cc3)Cc3ccc(Cl)cc3Cl)n2)CC1
    1	18
77) O=C1N(c2ccc3c(c2)OCO3)C(c2ccc3c(c2)OCO3)C1(F)F (stereo not drawn)
    11	14
93) O=C(Nc1nnc(SCc2ccccc2F)s1)c1cc(C(F)(F)F)cc(C(F)(F)F)c1
    5	13
